Screening data from PubChem BioAssay.
PV pol inh: poliovirus RNA polymerase inhibition; poliovirus polymerase elongation, fluorescence polarization; active compounds read low; % elongation, % (compound at 16.7 µg/mL); actives 0.66% (n = 150,000); in the data active = % elongation below about 90%; note: some results filed as inactive read as strong as hits
Target sequence (P03300 1749-2209 limits assumed): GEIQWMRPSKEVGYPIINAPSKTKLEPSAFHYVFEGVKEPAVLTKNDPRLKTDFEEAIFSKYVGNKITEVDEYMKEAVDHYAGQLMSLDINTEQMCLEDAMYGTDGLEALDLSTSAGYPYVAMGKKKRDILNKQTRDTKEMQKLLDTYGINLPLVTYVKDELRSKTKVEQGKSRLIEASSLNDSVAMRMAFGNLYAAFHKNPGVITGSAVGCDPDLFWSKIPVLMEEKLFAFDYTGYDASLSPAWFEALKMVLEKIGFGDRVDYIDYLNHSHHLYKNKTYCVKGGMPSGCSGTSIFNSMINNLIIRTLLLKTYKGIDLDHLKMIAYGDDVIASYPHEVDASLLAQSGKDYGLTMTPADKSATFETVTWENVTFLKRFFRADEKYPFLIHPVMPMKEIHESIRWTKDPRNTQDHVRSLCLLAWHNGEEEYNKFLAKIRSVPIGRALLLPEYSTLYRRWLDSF
Mtb MenB inh: Mtb MenB enzyme inhibition. actives 0.43% (n = 100,000). P9WNP5. AID 540299. inhibition, %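 (about 12 µg/mL by stock and volumes)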. MenB enzyme assay, absorbance read-out; some hits fall short of the stated cut;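 active = mean of two replicates above 30%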;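 note: 0% = no compound and 100% = wells with inactive enzyme; the first replicate is given; strong numbers were not always called active; inactives centre near -10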
MbtI inh: inhibitors of Mycobacterium tuberculosis siderophore enzyme MbtI. purified MbtI enzyme, fluorescence intensity read-out. inhibition, %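 (about 17 µg/mL by stock and volumes)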. actives 0.89% (n = 100,000). AID 493033;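 active = above 50% in both replicates, above 80% if mildly self-fluorescent; inactive = the rest, strongly fluorescent compounds included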;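 note: 0% = mean of negative and 100% = mean of positive controls; one replicate is shown; some compounds called inactive have numbers as strong as hits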
Target sequence (P9WFX0 whole entry, looked up): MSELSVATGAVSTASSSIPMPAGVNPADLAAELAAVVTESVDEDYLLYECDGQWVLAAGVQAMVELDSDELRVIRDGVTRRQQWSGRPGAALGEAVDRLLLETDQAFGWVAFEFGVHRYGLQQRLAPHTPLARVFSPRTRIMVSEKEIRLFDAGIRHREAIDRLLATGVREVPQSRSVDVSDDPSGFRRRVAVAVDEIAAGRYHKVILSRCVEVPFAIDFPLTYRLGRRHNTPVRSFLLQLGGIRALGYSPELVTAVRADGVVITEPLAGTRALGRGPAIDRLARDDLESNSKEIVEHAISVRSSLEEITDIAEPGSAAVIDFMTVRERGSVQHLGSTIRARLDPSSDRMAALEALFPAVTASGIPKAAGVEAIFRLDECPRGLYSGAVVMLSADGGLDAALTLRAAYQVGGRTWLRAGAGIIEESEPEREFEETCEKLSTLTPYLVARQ
PV pol inh intensity: recorded beside PV pol inh, whose call it bears; % elongation; measured here: total intensity read-out; formula for this scale not given here;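 total fluorescence in place of polarization; lower means less elongation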
Active calls of the source: *; i = inactive; · = not tested or not shown.

SMILES	PV pol inh	PV pol inh intensity	Mtb MenB inh	MbtI inh
Cc1c(C(=O)OCc2ncc(-c3ccccc3)o2)oc2ccccc12	96	90	-54	-29
CC(CCC(N)=O)C(=O)c1ccccc1 (configuration not stated)	99	104	14	-7
Cc1nc(C(=O)Nc2ccc(Cl)cc2)sc1C(=O)Nc1ccc(Cl)cc1	69*	83*	5	64*
CC(=O)N1c2ncnn2C(c2ccccc2)CC1c1ccc(C)cc1 (configuration not stated)	101	102	1	-9
CCOc1ncccc1C(=O)OCC(=O)NCc1ccccc1	101	107	-17	-14
O=C(c1ccc(Oc2ccccc2)cc1)c1nc2c(n1O)CCCC2	103	103	-25	19
CCS(=O)(=O)c1ccc2oc(NC(=O)CCCOc3ccc(Cl)cc3C)nc2c1	105	111	-3	2
CC1(C)Cc2c(sc3nc(NN)n(Cc4ccccc4)c(=O)c23)CO1	105	99	-9	10
CCOC(=O)Cn1cc(/C=C2/C(=O)NC(=S)N(Cc3ccco3)C2=O)c2ccccc21	99	109	-13	28
O=c1n(Cc2ccc(Cl)cc2)c2sc3c(c2c2ncnn12)CCCC3	100	101	-7	-12
CC1CCCN(S(=O)(=O)c2ccc(N)cc2)C1 (configuration not stated)	104	106	-49	13
Cc1cc(C)n(-c2ncnc3sc4c(c23)CC(C)CC4)n1 (configuration not stated)	100	105	7	-1
O=C(Nc1cccc(C(F)(F)F)c1)c1ccco1	104	107	-12	7
NC(Cc1cccc2nsnc12)C(=O)O (configuration not stated)	97	95	-18	·
CN(C)P1(N(C)C)=NC(C(F)(F)F)=NC(C(F)(F)F)=N1	103	97	9	0
CN(Cc1ccccc1)C1CC(=O)N(c2ccccc2)C1=O (configuration not stated)	100	103	-1	28
C1=CC2=Nc3cccc[n+]3CN2C=C1	98	105	i	i
O=CN/N=C/c1cc(Br)ccc1O	97	95	-81	-6
Cc1cc(-c2ccccc2)c(C#N)c(N)n1	103	103	-18	-31
CCc1ccc(OC(=O)CN2C(=O)c3ccccc3C2=O)cc1	101	100	-22	·
Cc1ccc2c(c1)nnn2CNc1ccc(OC(F)(F)F)cc1	107	112	-6	-10
CCOc1ccccc1C(=O)N1c2ccccc2Sc2ccccc21	104	104	-23	-166
Cc1ccc(OCC(=O)Oc2ccccn2)cc1	105	107	7	·
O=C(c1ccco1)N1CCC(c2ccccc2)C1 (configuration not stated)	111	111	-2	·
O=C(Nc1ccc(Cl)cc1)Nc1ncnc2nc[nH]c12	102	109	-23	5
Oc1cccc2cccnc12	100	100	-2	-26
COC(=O)c1ccc(NC(=O)COC(=O)c2cccc(N(C)C)c2)cc1	99	101	-40	14
O=C(Nc1ccc(F)cc1F)C1CC(c2ccccc2F)=NO1 (configuration not stated)	100	103	-8	-14
O=C(OCn1nnc2ccccc2c1=O)C1CCCCC1	102	102	23	6
CC1(C)Oc2ccc(NC(=O)c3ccco3)cc2O1	101	101	30	5
CNC(=O)c1sc(NCc2ccccc2OC)nc1C	80*	89*	-10	87
CC1Cc2cc(S(N)(=O)=O)ccc2N1Cc1cc2c(cc1Br)OCCO2 (configuration not stated)	97	102	-24	5
OC(CNCC1CCCCC1)c1ccccc1 (configuration not stated)	101	101	-101	5
COc1cc(SC)ccc1C(=O)N(C)Cc1nc2ccccc2c(=O)[nH]1	103	100	8	6
CCOC(=O)c1cc(-c2ccccc2)n(CCC(=O)N(C)C2CCCCC2)c1C	103	107	-40	-8
O=c1[nH]cnc2c(-c3ccc(Cl)cc3)nsc12	103	101	-21	-12
Cc1ccc2nc(-c3ccc(N=Cc4ccc[nH]4)cc3)sc2c1	109	118	-22	·
COc1ccc2c(c1)N(C)/C(=C1/SC(=O)N(c3ccccc3)C1=O)S2	105	100	-26	-5
O=C(NCC1COc2ccccc2O1)c1ccc2c(=O)n3c(nc2c1)CCCCC3 (configuration not stated)	103	107	4	24
O=C(COC(=O)c1ccc2[nH]c3c(c2c1)CCCC3)c1ccc2c(c1)OCO2	96	103	9	3
CNS(=O)(=O)c1ccc(F)c(C(=O)OCC(=O)c2c[nH]c3ccccc23)c1	100	107	7	-2
CSc1ccc(C2C3=C(CCCC3=O)NC3=C2C(=O)CCC3)cc1	100	99	-80	-27
O=C1CC2(CCCC2)C(=O)N1Cc1coc(-c2cccs2)n1	107	100	-23	45
CCN(CC)C(=O)CC#N	102	106	-5	7
Cc1csc2nc(CSc3ccccc3)cc(=O)n12	99	101	-9	24
COC(CNC(=O)CC1C(=O)N(Cc2ccccc2)C(C)c2nc3ccccc3n21)OC (configuration not stated)	104	106	0	-3
Cc1ccc(N/C(N)=N/c2nc(CSc3nnc(N)s3)cc(=O)[nH]2)cc1	101	104	-2	-5
Cc1noc(/C=C/c2cccs2)c1S(=O)(=O)N1CCCC(C(=O)Nc2nccs2)C1 (configuration not stated)	101	103	-14	-15
O=C(O)c1ccc(N2N=C(C(F)(F)F)/C(=C/c3ccc(OC(=O)c4cccs4)cc3)C2=O)cc1	99	104	-4	-2
COC(=O)c1ccc(-c2ccco2)n1CC(=O)N1CCN(c2cccc(OC)c2)CC1	101	99	-12	-136
Cc1cc(C(=O)O/N=C(\N)c2cc(C)on2)no1	99	92	-7	12
O=C1CN(C(=O)Cn2ncc(Cl)c(Cl)c2=O)c2ccccc2N1	97	101	1	11
CN1CCc2c(n(CC(O)CNCc3ccccc3)c3ccccc23)C1=O (configuration not stated)	102	98	9	8
Cc1c2cnn(-c3ccccc3)c(=O)c2c(C)n1CCCC(=O)NC1CCCCCC1	104	98	-17	7
c1ccc2sc(SCc3cn4ccsc4n3)nc2c1	103	103	4	10
Cc1ccc(-c2sc(=S)n3c4ccccc4c(=O)n(Cc4ccc(C#N)cc4)c23)cc1	105	110	-17	-11
CCc1nc2c(cnn2-c2ccccc2)c(=O)n1-c1ccc(C)cc1	103	103	-27	-14
Nn1c(SCC(=O)N2CCCC2)nnc1-c1ccco1	104	107	2	-3
CC(=O)Nc1nc(SCC(C)C)n[nH]1	107	112	-22	·
CC(C)(C)c1nc(NCC2CCCO2)c2nnn(Cc3ccccc3Cl)c2n1 (configuration not stated)	102	101	14	-2
(next part)
SMILES	PV pol inh	PV pol inh intensity	Mtb MenB inh	MbtI inh
O=C1NC2=C(C(=O)CCC2)C(c2ccc(Cl)cc2)N1 (configuration not stated)	101	104	-3	4
CCOc1ccc(C(=O)NCC(=O)N2CCN(Cc3ccccc3)CC2)cc1	101	100	·	-2
Cc1cc(=O)[nH]c(O)c1C#N	98	101	13	108
O=c1[nH]oc2nc(C3CC3)cc(C(F)(F)F)c12	101	104	-39	7
O=C(NCc1ccccc1Cl)C1CCCN(c2ncnc3c2nc2n3CCCCC2)C1 (configuration not stated)	102	104	-10	-7
Cc1ccc(OCCn2c(=O)oc3ccccc32)cc1	100	100	-1	6
CCc1nn(C(=O)c2ccccc2)c2c1C(=O)CC(C)(C)C2	103	105	·	-9
CC1=[N+]([O-])C(C)(C)C(c2ccc(C)cc2)=[N+]1[O-]	102	101	-16	24
O=C(O)c1ccc(-c2ccccc2)s1	101	98	4	33
CC1CN(Cc2cc(=O)n3c(-c4ccccc4)csc3n2)CC(C)O1 (configuration not stated)	126	144	7	-42
Clc1ccc(C=NC23CN4CN(CN(C4)C2)C3)cc1	97	100	-7	8
CCn1c(-c2ccc(OC)cc2)nc2ccccc21	107	104	-8	·
Cc1ccc(S(=O)(=O)N2CCN(C(=O)c3cc(=O)[nH]c4ccccc34)CC2)c(C)c1	103	106	-5	-24
CCC(C)N(C(=O)CSc1nc2ccccc2n1-c1ccc(C)cc1)C1CCS(=O)(=O)C1 (configuration not stated)	106	105	-11	-6
S=c1[nH]nc(/N=C/c2ccc(Br)cc2)n1Cc1ccccc1	104	104	-42	-4
O=C(Nc1ccc(S(=O)(=O)N2CCCCCC2)cc1)c1ccncc1	100	102	-6	-8
CCCNC(=O)c1oc(=O)c2ccccc2c1-c1ccc(C)cc1	104	98	0	-20
Cn1c(C(C#N)C(=O)c2ccc3c(c2)S(=O)(=O)c2ccccc2C3=O)nc2ccccc21 (configuration not stated)	88	119	-32	-3
CCN(CC(=O)Nc1ccc2c(c1)OCCO2)C(=O)c1cccc(S(=O)(=O)N2CCOCC2)c1	100	105	-33	-9
CCOC(=O)c1nnn(-c2nonc2-n2cccc2)c1C	101	105	-16	-12

Record cards, from the list above. Order of screens: PV pol inh	PV pol inh intensity	Mtb MenB inh	MbtI inh
`Cc1ccc(OCCn2c(=O)oc3ccccc32)cc1` as listed: 100	100	-1	6
`CCn1c(-c2ccc(OC)cc2)nc2ccccc21` as listed: 107	104	-8	·
`Cc1ccc(S(=O)(=O)N2CCN(C(=O)c3cc(=O)[nH]c4ccccc34)CC2)c(C)c1` as listed: 103	106	-5	-24
`CCOC(=O)c1nnn(-c2nonc2-n2cccc2)c1C` as listed: 101	105	-16	-12
`Cc1cc(=O)[nH]c(O)c1C#N` as listed: 98	101	13	108

Following part
SMILES	PV pol inh	PV pol inh intensity	Mtb MenB inh	MbtI inh
O=C1/C(=C/c2ccc3nccnc3c2)Cc2ccccc21	103	126	-19	10
Cc1ccc(C)n1-c1ccc(C(=O)N(C)CCCc2[nH]nc(N)c2C#N)cc1	108	111	-19	-5
Fc1ccccc1CNC1CCCC1	102	106	18	-4
O=C(Nc1ccccc1)Nc1ccc2c(c1)C(=O)OC2	102	107	-18	6
O=C(OCc1nc2ccccc2s1)C12CC3CC(CC(O)(C3)C1)C2	104	114	-9	2
COc1ccc(-c2nnc(SC(C)c3nc4ccccc4c(=O)[nH]3)n2CC2CCCO2)cc1 (configuration not stated)	104	108	-22	12
COCCN1C(=O)CS/C1=C(/C#N)C(=O)NCCc1ccccc1	107	110	-80	9
Cc1cc(C(=O)COc2ccc3oc4c(c3c2)CCCC4)c(C)n1Cc1cccs1	98	103	2	-6
O=C(CSc1nnc(-c2cccs2)o1)Nc1ccc2c(c1)OC1(CCCCC1)O2	113	124	-9	-4
COC(=O)C1CCCCCC1=O (configuration not stated)	103	96	·	-7
O=c1c2ccccc2nnn1CSc1nc2cc(Cl)ccc2s1	105	110	-22	31
CC1(C)CC(NC(=S)Nc2ccc(S(N)(=O)=O)cc2)CC(C)(C)N1	101	96	-24	10
O=C(Nn1c(SCc2ccc(F)cc2)nc2ccsc2c1=O)c1ccccc1	103	104	-21	-5
O=C(Cc1ccc(F)cc1)NC1CCSC1=O (configuration not stated)	105	104	-35	-1
COc1ccc(OCc2c(C#N)c3ccccc3n2C)cc1	103	111	-12	·
CC1CCc2c(sc3ncnc(Oc4ccccc4F)c23)C1 (configuration not stated)	103	107	·	-15
Cc1cc(=O)oc2cc(OCC(=O)NCc3ccco3)ccc12	100	98	4	88
CC(C)CCNS(=O)(=O)c1ccc(Cl)c(Cl)c1	102	105	·	-9
O=C(NCc1ccccn1)c1ccc(NC2=NC3CS(=O)(=O)CC3S2)cc1 (configuration not stated)	99	100	-9	14
O=C(Nc1ccc(-c2ccccc2)cc1)C1CC1c1ccccc1 (configuration not stated)	107	110	-30	·
CCC1CCCCN1S(=O)(=O)c1ccc(NC(=O)COc2ccc(OC)cc2)cc1 (configuration not stated)	102	96	-36	-6
Cc1cc(C)nc(/N=C2\NC(=O)CC(C(=O)O)N2c2cccc(Cl)c2)n1 (configuration not stated)	103	105	-2	·
Clc1ccc(CNc2nc3ccccc3[nH]2)cc1Cl	98	105	-12	-9
Cc1ccc(Nc2cc(C(=O)NCCC(C)C)c3ccccc3n2)cc1C	103	98	8	16
CCNc1nc(NCC)nc(OCC#N)n1	100	102	5	-8
Cc1cc(C)c(NC(=O)C(C)OC(=O)C2CCCCC2)c(C)c1 (configuration not stated)	101	108	-10	10
CC1CN(C(=O)CSc2nnc(-c3cccs3)n2N)CC(C)O1 (configuration not stated)	103	113	-14	-1
CCN1C(=O)NC(=O)/C(=C\c2cn(CC(=O)N3CCCC3)c3ccccc23)C1=O	101	106	-11	1
CCC(C)(C)n1nnnc1CN(Cc1ccc(Cl)cc1)CC1CCCO1 (configuration not stated)	100	103	-42	-2
O=C1Nc2ccccc2/C1=C/c1ccc(N2CCOCC2)cc1	104	108	·	-10
COC(=O)c1ccc(COC(=O)c2cccc(S(=O)(=O)NCc3ccccc3)c2)o1	101	105	-37	12
COc1ccccc1NC(=O)Cc1noc(CSc2nc3sc(C)c(C)c3c(=O)n2C(C)C)n1	111	111	10	6

Exported in CSV form: 5 of the compounds above.
molecule,PV pol inh,PV pol inh intensity,Mtb MenB inh,MbtI inh
Cc1cc(=O)[nH]c(O)c1C#N,98,101,13,108
O=C(Nn1c(SCc2ccc(F)cc2)nc2ccsc2c1=O)c1ccccc1,103,104,-21,-5
O=c1[nH]cnc2c(-c3ccc(Cl)cc3)nsc12,103,101,-21,-12
Cc1cc(C(=O)O/N=C(\N)c2cc(C)on2)no1,99,92,-7,12
COC(=O)c1ccc(NC(=O)COC(=O)c2cccc(N(C)C)c2)cc1,99,101,-40,14
